Mtb H37Rv: Mycobacterium tuberculosis H37Rv growth inhibition, cell based, confirmatory dose response (AID 1949). most inactive calls were filed without a number and no value below 0 was filed. one-dose inhibition, % at 10 µg/mL; IC50 in µg/mL for titrated hits. actives 1.6% (n = 100,000);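 active = confirmed in a dose series; inconclusive = about 50% or more but not retested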;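 note: bacteria grown 7 days with compound before Alamar blue readout; 0% = untreated bacteria and 100% = reference antibiotic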
Active calls of the source: *; i = inactive; ? = inconclusive. Some of the compounds tested; the hit share may differ from the screen's.

SMILES	Mtb H37Rv
COc1cc(C(=O)N(c2ccc(C)cc2)C2CC(=O)N(c3ccc(C)cc3)C2=O)cc(OC)c1OC (stereo unspecified)	i
CC(=O)Nc1cccc(NC(=S)NCc2ccco2)c1	0.1%
CC(=O)NC(=S)Nc1ccccc1C	0.7%
CCCCn1c(NC(=S)Nc2ccccc2)nc2ccccc21	4.83µg/mL*
CCOC(=O)c1ccc(N2C(=O)CC(C3CCCO3)C2=O)cc1 (stereo unspecified)	i
CCCOc1ccc(CN(C(=O)c2nc(SCC)ncc2Cl)C2CCS(=O)(=O)C2)cc1 (stereo unspecified)	i
Cc1[nH]c2ccc(Br)cc2c(=O)c1CN(C)C	4.5%
Cc1ccc(N(CC(=O)Nc2cccc(F)c2)S(C)(=O)=O)c(C)c1	i
O=C(NCCCN1CCCC1=O)c1cc2c(s1)CCCCC2	i
CCCNC(=O)C(=O)Nc1cc(OC)ccc1OC	i
CCOC(=O)Cc1c(C)nc2c(-c3ccc(Cl)cc3)c[nH]n2c1=O	1.95µg/mL*
Cn1c(CCc2ccccc2)nnc1SCC(=O)N1CCCC1	i
CN1CCN(C(=O)CN(C)S(=O)(=O)c2ccc(F)cc2)CC1	i
Cc1occc1C(=O)NNC(=S)NCc1ccc(Cl)cc1	i
O=C(NC(=S)Nc1ccc(N2CCCC2)c(Cl)c1)c1cccc(Cl)c1Cl	i
CCOC(=O)CCc1c(C)c2ccc(OCc3ccc(C(=O)OC)cc3)c(C)c2oc1=O	0.1%
CCOC(=O)CSc1nnc(Cc2ccc(OC(C)C)c(Cl)c2)n1Cc1ccccc1	28.3%
COc1ccc(NC(=O)Nc2ccc(N(C)C)cc2)cc1	i
CCn1c(SCC(=O)c2ccc(Br)cc2)nnc1-c1ccc(N)cc1	i
COc1ccc(OC)c(Nc2c([N+](=O)[O-])c(=O)oc3ccccc23)c1	0.8%
Cc1ccc(-c2ccc(OCC(=O)NCC3CCCO3)cc2)cc1 (stereo unspecified)	i
CCOC(=O)c1c(N)sc(C(=O)Nc2cc(OC)ccc2OC)c1C	i
CCOC(=O)c1ccc(NC(=O)CN2CCCC2)cc1	i
Cc1cc(=O)oc2cc(NC(=S)Nc3ccc4c(c3)OCO4)ccc12	i
Cc1cc(OCC(=O)c2ccc(Br)cc2)cc2oc(=O)c3ccccc3c12	i
CCOC(=O)c1c(-c2ccco2)csc1NC(=O)CN1CCN(CC)CC1	i
O=C(Nc1sc2c(c1C(=O)NCC1CCCO1)CCCC2)c1cccs1 (stereo unspecified)	i
Cc1cccc(C)c1N(CC(=O)NC1CCCCC1)S(C)(=O)=O	i
COc1ccc(OC)c(NC(=O)CSc2ncccn2)c1	i
COc1cccc(N(CC(=O)N2CCCCCC2)S(C)(=O)=O)c1	0.6%
Cc1ccc(-c2csc3ncnc(SCC(=O)Nc4ccccc4F)c23)cc1	i
Cc1cc(C)c(S(=O)(=O)Nc2c(F)cccc2F)c(C)c1	4.3%
CN(C)c1ccc(Nc2nc(-c3ccc(O)c(O)c3)cs2)cc1	i
c1ccc(-n2nnnc2CSc2ncn[nH]2)cc1	i
Cc1scc(C(=O)NCc2ccco2)c1-c1ccccc1	?
S=C(Nc1cccc2ccccc12)N1CC=C(c2ccccc2)CC1	i
COc1ccc2c(c1)c(=O)oc1c(C)c(OC(C)c3ccccc3)ccc12 (stereo unspecified)	i
CS(=O)(=O)N1CCN(c2ncccn2)CC1	0.5%
CCc1c(C)sc(NC(=O)c2ccc3c(c2)OCO3)c1C(=O)OC(C)C	i
Nc1c(C(=O)Nc2ccccc2OC(F)(F)F)sc2nc3c(cc12)CCCCC3	3.8%
CCN(CC)C(=O)c1cn(-c2ccccc2)nc1-c1cccc(Cl)c1	27.1%
Cc1ccccc1C1C2=C(CC(C)(C)CC2=O)NC2=C1C(=O)CC(C)(C)C2	i
COc1ccc(F)cc1S(=O)(=O)Nc1cccc(Cl)c1Cl	i
O=[N+]([O-])c1cccc(Cl)c1Sc1nnnn1-c1ccccc1	7.7%
CC(=O)N1c2ccccc2C(N(C(=O)c2cccs2)c2ccccc2)CC1C (stereo unspecified)	1.4%
COc1ccc(C(=O)Nc2ccc(Br)c(C)n2)cc1[N+](=O)[O-]	i
Cc1cc(C)c(NC(=O)C2CCN(S(=O)(=O)c3cc(Cl)ccc3Cl)CC2)c(C)c1	i
CC(Oc1cccc(Cl)c1)C(=O)Nc1ccc(Nc2ccccc2)cc1 (stereo unspecified)	4.0%
CCOC(=O)CCCCC(=O)c1[nH]c(=O)[nH]c1CSC#N	i
CCOC(=O)N1CCN(CC(O)COC2CC(C)CCC2C(C)C)CC1 (stereo unspecified)	i
CCOC(=O)c1c(NC(=O)C2C3C=CC(C3)C2C(=O)O)sc(C)c1CC (stereo unspecified)	i
CCN(CC)CCOc1cccc(C(C)C)c1	i
Cc1ccc(NCc2nc(-c3ccccc3)no2)cc1	i
Cc1ccc(Cc2cnc(NC(=O)COc3ccccc3C)s2)cc1	i
Cc1ccc2c(c1)C(=O)C(=O)N2Cc1ccc(OC(C)C)cc1	i
C=CCNc1nnc(Cc2ccccc2)s1	i
COC(=O)c1c(NC(=O)c2cccnc2)sc2c1CCC2	41.0%
O=C(Nc1cccnc1)c1ccc(OCc2ccccc2)cc1	i
O=C(CN1CCOCC1)Nc1ncc(Cc2ccccc2Cl)s1	9.9%
O=C(CCCC(=O)NC12CC3CC(CC(C3)C1)C2)NC12CC3CC(CC(C3)C1)C2	i

Next entries:
SMILES	Mtb H37Rv
O=C(NC(Cc1ccccc1)C(=O)NCCSc1ccccc1)c1ccccc1 (stereo unspecified)	i
COC(=O)c1ccccc1NS(=O)(=O)c1ccc(CC(C)C)cc1	i
Cc1cc(/C=C(/C#N)c2nc3ccccc3[nH]2)cc(C)c1O	i
COc1cc(-c2nc3ccccc3s2)ccc1OC(C)C	10.5%
CN1CCN(CCCSc2ccc(Cl)cc2)CC1	3.2%
O=C(NC1CC1)c1ccc(CN2CCN(c3ccccc3)CC2)cc1	i
O=C(Nc1ccccn1)c1ccc(Br)s1	i
COc1ccc(C2(CN)CCOCC2)cc1OC	i
Cc1nc2ccccc2c2c1C(=O)N(Cc1cccnc1)C2=O	i
CCCC(=O)Nc1cccc(C(=O)Nc2ccccc2C(=O)O)c1	i
CCOc1ccccc1NC(=O)c1c(NCc2ccc(C)o2)sc2c1CCC2	i
C=CCN(c1ccc(C(=O)Nc2cc(Cl)ccc2Cl)cc1)S(C)(=O)=O	i
Cc1c(NC(=S)NC(=O)c2cccc(OCc3ccccc3)c2)cccc1C(=O)O	7.2%
COc1ccc(CNC(=O)CN(Cc2ccc(C)cc2)S(=O)(=O)c2ccc(Cl)cc2)cc1	i
CCOc1ccccc1N1CCN(C(=O)C(C)Oc2ccc(Cl)cc2C)CC1 (stereo unspecified)	3.0%
N#CCc1ccc(NC(=O)c2ccc(-c3ccccc3)cc2)cc1	i
COc1ccc(-n2c(C)ccc2-c2ccccc2)nc1	7.2%
CCSCCNC(=O)c1cc(-n2cnnc2)ccc1Cl	i
C=CCOc1ccc(CNC(C)(C)CO)cc1	i
Cc1sc2ncnc(Nc3cc(Cl)cc(Cl)c3)c2c1C	i
O=C(Nc1c(F)c(F)c(F)c(F)c1F)c1ccccc1[N+](=O)[O-]	i
COc1ccc(NC(=O)Nc2ccccc2Sc2ccc(Cl)cc2)cc1OC	0.6%
Cc1ccnc(NC(=O)CSc2nc(N)cc(=O)[nH]2)c1	i
CN1CCN(CC(=O)Nc2ccc(Br)cc2C(=O)c2ccccc2)CC1	i
CN1CCN(C(=S)c2ccc(OCC(=O)Nc3cccc(C(F)(F)F)c3)cc2)CC1	i
C(=C\CSc1nnnn1-c1ccccc1)/CSc1nnnn1-c1ccccc1	i
CN(C)S(=O)(=O)N(CC(=O)N(Cc1ccccc1)Cc1ccccc1)c1ccccc1	3.6%
COc1ccc(NC(=S)Nc2ccc(I)cc2)cc1OC	i
CC(NC(=O)NC(=O)c1ccc(F)cc1)c1ccccc1 (stereo unspecified)	i
Cc1cc(C)c(NC(=O)C(C(C)C)N2C(=O)c3ccccc3C2=O)c(C)c1 (stereo unspecified)	i
Cc1ccc(OCCCC(=O)Nc2ccc(Br)cc2)cc1	i
O=S(=O)(Nc1ccc2oc3c(c2c1)CCCC3)c1ccc(Br)cc1	i
COC(=O)c1c(-c2ccc(OC)c(OC)c2)csc1N	i
COc1ccc(NC(=O)CN(c2ccc(C)c(C)c2)S(=O)(=O)c2ccc(C)cc2)cc1Cl	i
CC(Oc1ccccc1)C(=O)Nc1ccc(S(=O)(=O)N2CCCCC2)cc1 (stereo unspecified)	0.6%
C=CCn1c(SCC(=O)Nc2ccc(C(C)C)cc2)nnc1-c1ccccc1	i
Cn1cnc2ccc([N+](=O)[O-])cc2c1=O	i
CS(=O)(=O)N(CC(=O)Nc1cccc(F)c1)c1cccc([N+](=O)[O-])c1	i
COC(=O)c1ccc(NC(=O)CN(c2ccc(C)c(Cl)c2)S(=O)(=O)c2ccccc2)cc1	i
Cc1ccc2oc(=O)n(CC(C)C)c2c1	i
Cc1ccc(S(=O)(=O)N(CC(=O)Nc2cccc([N+](=O)[O-])c2)c2ccccc2F)cc1	i
O=C(NCCCNC(=O)c1cccc(Cl)c1)c1cccc(Cl)c1	2.6%
Cc1ccc(N2CCN(C(=O)c3ccc([N+](=O)[O-])cc3)CC2)c(C)c1	i
Cc1cc(C)c(NC(=O)COc2ccc(C)cc2Br)c(Cl)c1	14.1%
Cn1c(SCC(=O)Nc2ccc(Br)cc2Cl)nnc1-c1ccncc1	i
CS(=O)(=O)N(CC(=O)NC1CCCC1)c1cccc2ccccc12	i
CS(=O)(=O)N1CC(=O)Nc2ccccc21	i
Cc1cc(=O)oc2cc(Oc3cc(C#N)c(C#N)cc3-n3nnc4ccccc43)ccc12	i
CCC(C)N1CCN(Cc2cccc(Br)c2)CC1 (stereo unspecified)	i
Cc1ccc(N2CC(C(=O)Nc3ccc(F)c(F)c3)CC2=O)cc1 (stereo unspecified)	i
Cc1ccccc1OCC(=O)Nc1sc2c(c1C(=O)NCc1ccco1)CCCC2	i
CCc1ccc(OCC(=O)Nc2cccc(C#N)c2)c(Br)c1	i
CC1CCN(CCCCOc2ccc(Cl)c(Cl)c2)CC1	i
Cc1cc(C)c2nc3nc(C)cc(C)c3c(N)c2c1	?
Cc1ccc2nc(-c3ccc(NC(=S)Nc4cccc([N+](=O)[O-])c4)cc3)sc2c1	i
O=C(Cc1cccs1)N1c2ccccc2CCc2ccccc21	0.5%
Clc1ccc(Cc2nc(-c3ccncc3)no2)cc1	4.4%
CCOC(=O)c1c(-c2ccccc2)oc2ccc(O)c(CN(C)C)c12	i
COc1ccc(OC)c(NC(=S)NCc2ccccc2OC)c1	i
COc1ccc(OC)c(NC(=S)N2CCN(C(=O)c3ccco3)CC2)c1	i

(next part)
SMILES	Mtb H37Rv
Nc1ncncc1-c1ccc([N+](=O)[O-])cc1	1.3%
CCOc1ccc(NS(=O)(=O)c2ccc(Br)s2)cc1	i
CCOc1cc(-c2ccc(O)c(O)c2)cc(=O)c2c(C)oc(C)c12	i
CC(Cc1ccccc1)N=Cc1cc(-c2ccccc2)oc1S (stereo unspecified)	1.8%
COc1ccc(Cl)cc1N(CC(N)=O)S(C)(=O)=O	i
Cc1cc(C)c(OCC(O)CN2CCCCC2)c(C)c1 (stereo unspecified)	i
O=C(CCC(=O)OCc1ccc(Br)cc1)Nc1ccc(Cl)cc1	i
Cc1ccc(-c2nn(C)c(=O)c3ccccc23)cc1CNC(=O)c1ccc([N+](=O)[O-])cc1	i
O=C(O)c1ccc(-n2nnnc2SCc2ccccc2)cc1	i
COc1ccc(-c2noc(-c3ccc(Cl)cc3Cl)n2)cc1OC	i
O=C(/C=C/c1ccc(-c2ccc(Cl)c(Cl)c2)o1)c1cccs1	2.6%
Cc1cc(Cl)c(S(=O)(=O)N2CCCCCC2)cc1OCC(N)=O	i
Cc1cccn2cc(-c3cccc(S(=O)(=O)N(C)C)c3)nc12	2.8%
CC(=O)c1c(C)oc2c1cc(NS(=O)(=O)c1ccc(F)cc1)c1ccccc12	i
CCOC(=O)c1cccc(NC(=O)COc2ccc(C)c(C)c2)c1	19.3%
CC(=O)N(C)c1ccc(OCC(O)COc2ccc(N(C)S(=O)(=O)c3ccc(C)cc3)cc2)cc1 (stereo unspecified)	i
Cc1ccc2nc(-c3ccc(N4C(=O)CC(c5ccccc5)C4=O)cc3)sc2c1 (stereo unspecified)	i
c1ccc2c(c1)ncn2CCOCCOCCn1cnc2ccccc21	0.2%
Cc1noc(NS(=O)(=O)c2ccc(NC(=O)CCc3ccccc3)cc2)c1C	i
CCOc1c(Cl)cc(C(=O)NCc2ccc(C)cc2)cc1Cl	0.7%
Nc1cc(=O)nc(SCC(=O)Nc2nc(-c3ccccc3)cs2)n1-c1ccccc1	?
CCCCC12CN3CC(C)(CN(C1)C31C(=O)N(C)c3ccccc31)C2=O (stereo unspecified)	i

Among those listed so far, these contain fluorine.
SMILES	Mtb H37Rv
Cc1ccc(N(CC(=O)Nc2cccc(F)c2)S(C)(=O)=O)c(C)c1	i
CN1CCN(C(=O)CN(C)S(=O)(=O)c2ccc(F)cc2)CC1	i
Cc1ccc(-c2csc3ncnc(SCC(=O)Nc4ccccc4F)c23)cc1	i
Cc1cc(C)c(S(=O)(=O)Nc2c(F)cccc2F)c(C)c1	4.3%
Nc1c(C(=O)Nc2ccccc2OC(F)(F)F)sc2nc3c(cc12)CCCCC3	3.8%
COc1ccc(F)cc1S(=O)(=O)Nc1cccc(Cl)c1Cl	i
O=C(Nc1c(F)c(F)c(F)c(F)c1F)c1ccccc1[N+](=O)[O-]	i
CN1CCN(C(=S)c2ccc(OCC(=O)Nc3cccc(C(F)(F)F)c3)cc2)CC1	i
CC(NC(=O)NC(=O)c1ccc(F)cc1)c1ccccc1 (stereo unspecified)	i
CS(=O)(=O)N(CC(=O)Nc1cccc(F)c1)c1cccc([N+](=O)[O-])c1	i
Cc1ccc(S(=O)(=O)N(CC(=O)Nc2cccc([N+](=O)[O-])c2)c2ccccc2F)cc1	i
Cc1ccc(N2CC(C(=O)Nc3ccc(F)c(F)c3)CC2=O)cc1 (stereo unspecified)	i
CC(=O)c1c(C)oc2c1cc(NS(=O)(=O)c1ccc(F)cc1)c1ccccc12	i
